Compound activity (PubChem)
FGF22 binding = binders of human FGF22 protein, primary screen, FGF22 synaptogenesis inhibitor project, biophysical, thermal shift, single point; recombinant FGF22 thermal shift, SYPRO orange fluorescence; percent of sucrose octasulfate shift, DMSO zero; AID 651658, 2012; calls only at 9.99 µM; 1.5% of 340,000 active;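 active means melting point raised past a set limit in the mean and every replicate; inconclusive means no clear call; three in four hits are not shown here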
Target sequence (Q9HCT0 whole entry, looked up): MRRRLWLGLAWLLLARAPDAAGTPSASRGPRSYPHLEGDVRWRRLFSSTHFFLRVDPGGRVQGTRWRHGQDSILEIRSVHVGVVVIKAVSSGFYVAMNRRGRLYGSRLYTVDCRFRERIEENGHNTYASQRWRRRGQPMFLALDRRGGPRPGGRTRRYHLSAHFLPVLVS
Beta cell apopt = inhibitors of cytokine-induced beta cell apoptosis, primary screen, luminescence. INS-1E cytokine-induced death, ATP luminescence, 48 h; percent of positive-control rescue, neutral wells zero. 0.8% of 300,000 active. protection from apoptosis, % (concentration not given with the values);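 active means all replicates at 75% or more, or half of them and the mean; inconclusive means half reach 75% but not the mean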;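 further: 0% = cytokine-treated negative control wells and 100% = positive control rescue; higher means more ATP so stronger rescue from cytokine killing; wells of about 40 µL received 100 nL stock; the first replicate is given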
Ecoli rRNA inh = reduced GFP signal of wild-type E. coli, primary screen, bacterial rRNA inhibitor project, GFP/RFP fluorescence, OD600, single point; 1.6% of 350,000 active; E. coli WT GFP vs humanized-ribosome RFP mutants, 24 h; stronger effect = lower value; DMSO median 0, no signal -100; GFP signal change (wild-type ribosome), % (test concentration not listed);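 active means significant combined selectivity score with lowered wild-type GFP, culture density cut under 30%, mutant RFP and density less affected; inactive means any of these conditions unmet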; further: one replicate is shown; some compounds called inactive have numbers as strong as hits
T cruzi inh = inhibitors of intracellular T. cruzi growth, primary screen, luminescence, NIH3T3 host cells. T. cruzi beta-gal in NIH3T3, 90 h. inhibition, % (test concentration not listed). 1.4% of 300,000 active. AID 1885, 2009;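 active means mean inhibition across valid replicates above about 55%, limit read from the data; inconclusive means mean below that limit but half or more replicates reach it; inactive means mean below it, under half of replicates reach it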;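 further: signal also drops with host cell toxicity which is not excluded here; 0% = plate median of DMSO wells and 100% = zero luminescence signal; higher percent means less beta-gal luminescence so fewer parasites; stock transfer was 50 nL into about 50 µL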
RanGTP-Imp inh = inhibitors of RanGTP-importin-beta interaction, primary screen, biochemical, FRET, CFP-Ran, YFP-importin-beta, homogeneous; 1.1% of 300,000 active; inhibition, % (concentration not given with the values); Ran GTPase (GTP-bound) - importin-beta complex; cell-free CFP-Ran/YFP-importin-beta FRET ratio;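 active means most replicates above 15%; inconclusive means exactly half above 15%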;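 further: 0% = DMSO wells and 100% = Ran loaded with GDP instead of GTP; wells of about 40 µL received 100 nL stock; the first replicate is given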
Calb FLC = C. albicans growth inhibition with fluconazole, primary screen, CaCi-2 strain, Alamar Blue fluorescence; C. albicans CaCi-2 (fluconazole-resistant clinical isolate) + fluconazole, 48 h; growth inhibition, % (concentration not given with the values); 0.57% of 300,000 active; AID 1979, 2009;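 active means most replicates above 75%; inconclusive means exactly half above 75%; inactive means most below 75%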;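 further: all wells also contain fluconazole at 8 µg/ml as a sub-toxic cotreatment; 0% = median of DMSO wells and 100% = median of geldanamycin control wells; wells of about 8 µL received 7.5 nL stock; the first replicate is given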
ALR H2O2 inh = inhibitors of human ALR sulfhydryl oxidase, primary screen, biochemical, H2O2 detection, HRP-luminol luminescence, single point. inhibition, % (no concentration beside the values). purified ALR, DTT oxidation. FAD-linked sulfhydryl oxidase ALR (Homo sapiens), P55789. 3.8% of 290,000 active. AID 485317, 2010;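 active means mean and each replicate at 75% or more; inconclusive means only one of the two met; inactive means neither met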;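 further: stock transfer was 7.5 nL into about 7.5 µL; 0% = neutral wells and 100% = wells with inactivated enzyme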
Target sequence (P55789 whole entry, looked up): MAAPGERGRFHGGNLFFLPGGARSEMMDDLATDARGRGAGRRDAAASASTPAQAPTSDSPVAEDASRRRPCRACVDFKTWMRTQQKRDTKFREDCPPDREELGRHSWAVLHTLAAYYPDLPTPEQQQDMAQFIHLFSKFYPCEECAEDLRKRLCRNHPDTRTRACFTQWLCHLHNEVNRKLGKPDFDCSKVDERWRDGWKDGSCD
AF4-AF9 inh = inhibitors of AF4 peptide binding to AF9, primary screen, biochemical, AlphaScreen, biotin-AF4 peptide, FLAG-AF9, single point. Protein AF-9 (Homo sapiens), P42568. inhibition, % at 10 µM. 0.47% of 350,000 active. AID 651704, 2012;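 active means every replicate reaching a set inhibition limit, whatever the replicate mean, cut at about 25% in these data; inconclusive means mean inhibition reaches that limit but some replicates miss it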;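 further: 0% = plate neutral control median and 100% = total signal loss; the record names both 10 and 1 µM as test concentration; the first replicate is given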
Target sequence (P42568 whole entry, looked up): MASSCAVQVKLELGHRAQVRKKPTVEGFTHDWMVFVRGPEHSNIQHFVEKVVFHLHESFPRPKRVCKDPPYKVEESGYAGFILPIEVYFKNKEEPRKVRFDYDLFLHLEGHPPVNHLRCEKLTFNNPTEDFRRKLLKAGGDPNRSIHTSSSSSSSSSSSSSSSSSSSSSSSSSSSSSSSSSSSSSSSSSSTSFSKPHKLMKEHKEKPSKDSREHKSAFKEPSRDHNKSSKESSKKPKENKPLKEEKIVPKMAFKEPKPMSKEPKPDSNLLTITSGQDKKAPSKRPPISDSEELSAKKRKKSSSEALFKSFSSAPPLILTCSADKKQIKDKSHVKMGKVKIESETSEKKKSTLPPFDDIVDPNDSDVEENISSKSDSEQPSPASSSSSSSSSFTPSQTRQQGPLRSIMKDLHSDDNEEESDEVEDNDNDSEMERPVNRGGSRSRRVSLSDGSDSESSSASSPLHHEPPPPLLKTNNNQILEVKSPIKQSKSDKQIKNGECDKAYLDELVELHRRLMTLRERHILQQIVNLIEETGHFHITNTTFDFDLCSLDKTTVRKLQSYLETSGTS
Ecoli rRNA inh OD600 = further read-out of Ecoli rRNA inh, marked with its call; OD600 change, %; measured here: OD600 growth;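 optical density of the mix in the first replicate; 0 = DMSO median and -100 = no signal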
Ecoli rRNA inh RFP = recorded beside Ecoli rRNA inh, whose call it bears; RFP signal change, %; measured here: RFP humanized mutant strains;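 first replicate; 0 = DMSO median and -100 = no signal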
Active calls of the source: *; i = inactive; ? = inconclusive; · = no result given. The list is partial; count on the stated rates, not on these rows.

structure,FGF22 binding,Beta cell apopt,Ecoli rRNA inh,Ecoli rRNA inh OD600,Ecoli rRNA inh RFP,T cruzi inh,RanGTP-Imp inh,Calb FLC,ALR H2O2 inh,AF4-AF9 inh
CN1CCN(S(=O)(=O)c2cccc(C(=O)Nc3cccc([N+](=O)[O-])c3)c2)CC1,i,1,6,10,3.1,3,-2.6,-7,-6,2.9
COC(=O)C1=C(C)N(Cc2ccccc2)C(=NCc2cc(OC)c(OC)c(OC)c2)N[C@H]1CCc1ccccc1,i,-5,-11,-35,38,·,·,·,-6,6.4
O=C(c1ccco1)n1nc(-c2ccco2)nc1SCc1ccccc1,·,-9,·,·,·,1,5.0,-4,6,·
O=C(O)c1cc(C(=O)O)c(-c2ccccc2)c(C(=O)O)c1,·,-4,·,·,·,1,?,-5,-11,·
CCN1CCN(C(CNS(=O)(=O)c2ccc(Cl)cc2)c2ccccc2)CC1 (stereo not drawn),i,-4,0,6,-0.1,28,6.2,3,-4,3.5
CCc1nc(N2CCC(C)CC2)c2oc3ccccc3c2n1,i,6,-43,-60,-2.4,27,-0.3,-11,-3,5.5
CCC1(c2ccccc2)NC(=O)N(CC(=O)Nc2ccc(S(=O)(=O)NC3=NCCCCC3)cc2)C1=O (stereo not drawn),i,3,6,10,2.7,-15,-1.8,0,·,-7.9
CC(CP(=O)(O)O)NC(=O)Cc1ccccc1 (stereo not drawn),·,-1,·,·,·,-8,-5.2,39,-16,·
O=C(CNC(=S)N(CCCN1CCOCC1)Cc1cccs1)NCc1ccccc1,i,-5,6,13,0.4,13,2.9,-4,-3,1.4
CCc1nnc(NC(=O)c2nc(Cl)ccc2Cl)s1,i,-4,3,6,0.0,-1,-2.1,4,-6,-0.2

As a short view, part of the list above.
structure,FGF22 binding,Beta cell apopt,Ecoli rRNA inh,Ecoli rRNA inh OD600,Ecoli rRNA inh RFP,T cruzi inh,RanGTP-Imp inh,Calb FLC,ALR H2O2 inh,AF4-AF9 inh
CN1CCN(S(=O)(=O)c2cccc(C(=O)Nc3cccc([N+](=O)[O-])c3)c2)CC1,i,1,6,10,3.1,3,-2.6,-7,-6,2.9
COC(=O)C1=C(C)N(Cc2ccccc2)C(=NCc2cc(OC)c(OC)c(OC)c2)N[C@H]1CCc1ccccc1,i,-5,-11,-35,38,·,·,·,-6,6.4

Single values from the results shown:
Calb FLC, CN1CCN(S(=O)(=O)c2cccc(C(=O)Nc3cccc([N+](=O)[O-])c3)c2)CC1 reads -7
Beta cell apopt, CCc1nnc(NC(=O)c2nc(Cl)ccc2Cl)s1 reads -4
Calb FLC, CCC1(c2ccccc2)NC(=O)N(CC(=O)Nc2ccc(S(=O)(=O)NC3=NCCCCC3)cc2)C1=O (stereo not drawn) reads 0
Ecoli rRNA inh, O=C(CNC(=S)N(CCCN1CCOCC1)Cc1cccs1)NCc1ccccc1 reads 6

(cont.)
structure,FGF22 binding,Beta cell apopt,Ecoli rRNA inh,Ecoli rRNA inh OD600,Ecoli rRNA inh RFP,T cruzi inh,RanGTP-Imp inh,Calb FLC,ALR H2O2 inh,AF4-AF9 inh
CCOc1ccc(C2C(C(=O)Nc3cc(C)on3)c3ccccc3C(=O)N2CCN2CCOCC2)cc1 (stereo not drawn),i,-7,14,2,0.2,-23,-2.7,17,·,-3.7
COc1cc(OC)cc(-c2c(-c3cccs3)c3cc(-c4ccc(OC)cc4F)ccc3n2C)c1,i,-1,-5,-6,0.0,·,·,·,-4,0.6
CCC(c1nnnn1C(C)C)N1CCN(C2CCCC2)CC1 (stereo not drawn),·,-9,·,·,·,-28,2.7,-4,2,·
COc1ccc(C(=O)N2CCCc3ccccc32)cc1,·,-11,·,·,·,2,0.5,-14,3,·
COc1ccc(NC(=O)CCNS(=O)(=O)c2cc(Br)cnc2N)cc1OC,·,1,-3,-5,2.5,1,4.9,-8,-25,2.3
O=C(NCC(=O)N(c1cccnc1)C(C(=O)NC1CCCC1)c1cccs1)c1ccco1 (stereo not drawn),i,-6,20,20,2.6,10,-3.6,?,7,-1.9
CC(=O)n1c(-c2ccccc2)c(-c2ccccc2)n(C)c1=O,i,-9,·,·,·,6,1.8,1,?,1.3
COc1ccc(NC(=O)CSc2ccc(-c3cccnc3)nn2)c(OC)c1,i,9,-8,-7,5.4,-5,3.1,-2,-19,-1.4
Cc1c(NC(=O)[C@@H](NC(=O)c2ccc(Cl)c([N+](=O)[O-])c2)C(C)C)c(=O)n(-c2ccccc2)n1C,i,-9,6,10,-1.1,·,·,·,-6,0.9
CCN(C(=O)c1ccc2c(OC)n(CC)nc2c1)c1ccc(OC)cc1,i,1,1,-3,-8.6,-15,-0.7,-12,-4,3.1

Next part.
smiles	FGF22 binding	Beta cell apopt	Ecoli rRNA inh	Ecoli rRNA inh OD600	Ecoli rRNA inh RFP	T cruzi inh	RanGTP-Imp inh	Calb FLC	ALR H2O2 inh	AF4-AF9 inh
O=C1CN(c2ccccc2)C(=S)N1C(=O)c1ccc(Br)cc1	i	-5	0	7	3.1	-2	3.6	-2	-7	-1.4
C=C(C)CSc1nnc([C@@H]2CCCN2C(=O)OC(C)(C)C)o1	·	-7	·	·	·	-6	4.6	-36	·	·
CCOC(=O)C(=CNc1ccc(Oc2cncc(Cl)c2)nc1)C(=O)OCC	i	-4	-2	-4	-3.4	7	0.9	-4	-1	0.9
Cc1ccc(C(=O)NCCCc2ccccc2)s1	·	-7	·	·	·	-9	2.6	-4	-3	·
Cc1nnsc1C(=O)N/N=C/c1c(F)cccc1Cl	i	-1	9	-9	0.5	-8	-1.3	1	-3	-7.2
Cn1c(CCCNC(=O)c2cccs2)nc2ccccc21	·	-2	·	·	·	-11	-2.0	-10	-3	·
O=C1/C(=C/c2ccncc2)SC(=S)N1N1CCOCC1	i	10	14	13	5.6	-14	-1.5	5	0	·
O=Cc1cnc(N2CCCCC2)s1	·	-6	16	10	2.4	-6	-2.3	16	-11	4.8
CC(C)(C)NC(=O)c1cnn2c1NC(c1ccc(F)cc1)CC2C(F)(F)F (stereo not drawn)	·	5	·	·	·	4	1.3	-4	-4	·
CCOc1nc(NCCO)nc(Nc2cc(Cl)ccc2OC)n1	i	4	-8	-4	-2.4	4	0.7	22	-4	-2.1
COc1ccc(C)cc1NC(=O)C1CCN(C(=O)c2ccco2)CC1	i	2	0	-9	-0.5	-9	2.0	1	-15	1.0
O=C(CC(=O)Nc1cccnc1)Nc1cccnc1	i	44	5	11	1.2	-12	3.0	-3	-3	-0.2

Continued:
smiles	FGF22 binding	Beta cell apopt	Ecoli rRNA inh	Ecoli rRNA inh OD600	Ecoli rRNA inh RFP	T cruzi inh	RanGTP-Imp inh	Calb FLC	ALR H2O2 inh	AF4-AF9 inh
O=C(c1ccc(NS(=O)(=O)c2ccc3[nH]c(=O)[nH]c3c2)cc1)N1CCCCC1	i	-3	4	3	-1.0	-11	0.8	12	0	-13
N#Cc1c(Nc2ccccc2)s[nH]c1=O	i	-4	-2	0	2.4	-7	-2.1	-4	·	-3.6
O=C(Nc1ccc(S(=O)(=O)Nc2cnc3ccccc3n2)cc1)c1ccc(Br)o1	·	·	·	·	·	-4	1.5	-10	3	·
CC(C)CNC(=O)COC(=O)CCC(=O)c1ccc(F)cc1	·	·	·	·	·	-10	-5.2	-4	2	·
COc1cc(C2NC(=S)NC3=C2CCc2ccccc23)cc(OC)c1OC (stereo not drawn)	i	-4	-1	-2	-1.3	-3	-0.9	1	18	-6.9
Fc1ccc(Oc2cnc3ccccc3n2)cc1	i	-19	9	11	0.7	-8	5.7	?	3	-4.8
O=C(CSc1nnc(CNC(=O)c2c(F)cccc2F)o1)NCCc1ccccc1	i	-4	14	20	3.5	-2	-3.9	-2	-7	-5.5
Nc1c(C(=O)c2cccs2)oc2ccccc12	·	-4	-4	-27	1.6	-6	8.9	-13	-5	·
Cc1cc(C)c(C)c(S(=O)(=O)N(C)C2CCN(C)CC2)c1C	i	-7	19	16	4.5	27	2.7	-10	4	-0.1
Cc1ccccc1CN1[C@@H](C(C)C)COCCS1(=O)=O	i	-3	-3	-9	-0.8	1	-1.9	-7	-15	-0.9
CCNC(=S)N1CCN(S(=O)(=O)c2ccc(C)cc2)CC1	i	-8	-1	-12	1.8	-5	4.1	-1	-17	-2.4
Cc1cc(OCC(=O)NCCc2cccc(F)c2)c2c(C)cc(=O)oc2c1	i	9	14	15	1.6	11	4.2	9	-2	-0.4

New compounds follow
smiles	FGF22 binding	Beta cell apopt	Ecoli rRNA inh	Ecoli rRNA inh OD600	Ecoli rRNA inh RFP	T cruzi inh	RanGTP-Imp inh	Calb FLC	ALR H2O2 inh	AF4-AF9 inh
COc1cc(C(=O)NCCc2ccc(F)cc2)c([N+](=O)[O-])cc1OC	·	-17	·	·	·	0	0.0	3	-8	·
CC1CN(C(=O)c2ccc(S(=O)(=O)Nc3ccccc3Cl)cc2)CC(C)O1 (stereo not drawn)	i	2	1	11	-3.2	5	6.5	-1	2	-3.5
CCOc1ccc(-c2c(C(=O)N/N=C/c3ccc(Cl)cc3)nnn2-c2nonc2N)cc1	i	-2	4	10	1.7	-1	-5.6	25	·	-4.1
CC(=O)Nc1ccc(NS(=O)(=O)c2ccc(-c3cnc(C4CC4)o3)cc2)cc1	i	·	-20	-10	8.6	15	3.1	12	-51	6.4
Cc1ccccc1C1CC(c2cccs2)Nc2nnnn21 (stereo not drawn)	i	-5	-12	-5	-1.5	3	-1.2	17	·	-0.8
Cc1ccc(Nc2cnn(C34CC5CC(CC(CC(=O)O)(C5)C3)C4)c(=O)c2Cl)c(Cl)c1	i	-6	-23	-21	-5.7	0	?	14	-20	-0.6
